Bioassay records as filed in PubChem BioAssay.
Resorufin autofl: compound fluoresces in the resorufin spectral region. Compound fluorescence, resorufin region 547/598 nm, buffer; active compounds read high. 59,000 compounds, 0.04% hits. max dye-equivalent concentration, M; active = above 10 nM dye equivalent; inconclusive = 1 to 10 nM; inactive = 1 nM or less; a few of its hits are not listed in these tables; also: highest value over a series up to 38 µM
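Compounds in 100 mM Tris, pH 8.0, incubated 15 min at room temperature, then fluorescence read at 547 nm excitation/598 nm emission. Signal converted to dye-equivalent concentration via an on-plate six-point resorufin standard curve, per compound concentration.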
TSHR agonist: agonists of human thyroid stimulating hormone receptor. HEK293-CNG-TSHR cells (CNG channel as cAMP sensor), membrane potential dye, cAMP. P16473. Potency, µM (top dose mostly 57.1 µM), for inactives: at the top dose activation, usual class: activators. 73,000 compounds, 0.48% hits; active = well fitted activation curve of enough size with the parental cells flat; inconclusive = any curve in the parental cells; inactive = parental cells flat and receptor cells flat or falling; also: potency is read from the fitted curve at half-maximal effect; % of control where 0% means no effect; weak receptor curves with flat parental cells got no call and are not listed
Target sequence (P16473 whole entry, looked up): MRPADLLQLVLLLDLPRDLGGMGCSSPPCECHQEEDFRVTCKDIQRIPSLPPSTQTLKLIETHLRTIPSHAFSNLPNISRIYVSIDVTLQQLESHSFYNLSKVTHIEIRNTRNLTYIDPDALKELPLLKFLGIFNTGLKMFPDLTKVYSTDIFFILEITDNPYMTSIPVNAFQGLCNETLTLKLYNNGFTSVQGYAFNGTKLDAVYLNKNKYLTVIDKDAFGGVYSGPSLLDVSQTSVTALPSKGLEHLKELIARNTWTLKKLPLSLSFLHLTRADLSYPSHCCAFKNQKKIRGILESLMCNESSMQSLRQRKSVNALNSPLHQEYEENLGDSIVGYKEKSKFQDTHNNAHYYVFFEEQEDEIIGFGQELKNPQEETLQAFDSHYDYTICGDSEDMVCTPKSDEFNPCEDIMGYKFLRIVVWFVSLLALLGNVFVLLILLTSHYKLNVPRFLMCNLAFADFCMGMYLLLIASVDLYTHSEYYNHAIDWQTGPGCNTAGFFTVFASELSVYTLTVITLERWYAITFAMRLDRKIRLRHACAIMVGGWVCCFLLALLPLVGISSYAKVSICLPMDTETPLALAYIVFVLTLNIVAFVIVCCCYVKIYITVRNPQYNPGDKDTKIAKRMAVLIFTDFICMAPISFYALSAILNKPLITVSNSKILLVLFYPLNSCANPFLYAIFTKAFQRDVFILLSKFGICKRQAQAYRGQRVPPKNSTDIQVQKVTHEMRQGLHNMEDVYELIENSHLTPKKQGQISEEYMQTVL
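HEK 293 cells stably expressing TSHR and a modified CNG channel, with CNG-only parental cells as counterscreen, were preloaded 60 min at room temperature with membrane potential dye containing 100 uM RO 20-1724. Compound exposure was 30 min, and depolarization was read as fluorescence at 590 nm.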
A488 autofl: A488 region autofluorescence | compound autofluorescence, A488 spectral region, dye equivalency; active compounds read high | max dye equivalency, M | 59,000 compounds, 0.1% hits; active = above 10 nM dye equivalent; inconclusive = 1 to 10 nM; inactive = 1 nM or less; about half of its hits are not listed in these tables;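 also: highest value over a series up to 38 µM; compound alone in buffer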
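Compounds pin-transferred into 100 mM Tris buffer, pH 8.0, incubated 15 min at room temperature, then imaged with 480 nm excitation/540 nm emission filters. Fluorescence converted to Alexa 488 dye-equivalent concentration via an on-plate six-point A488 standard curve.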
AID923: qHTS Assay for Allosteric/Competitive Inhibitors of Caspase-1: Spectroscopic Profiling in AFC Spectral Region; Potency, µM (doses to about 57.5 µM), without a hit: at the highest dose fluorescence increase, hits mostly activators; compound fluorescence, AFC spectral region (405/520 nm); almost no hit is shown here; 75,000 compounds, 1.1% hits; active = well fitted activation curve with a large enough effect; inconclusive = small, poorly fitted or top-dose-only effect;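 also: potency is read from the fitted curve at half-maximal effect; 0% is about no effect; scaled to a free AFC standard on each plate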
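Titrations up to 57 uM read every 20 sec for 3 min (405/520 nm) with 50 nM caspase 1 and 5 uM Ac-WEHD-AFC, pH 7.5 HEPES buffer. Fluorescence-vs-time intercept gave baseline, scaled against on-plate AFC standard.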
A647 autofl: A647 region autofluorescence; Compound fluorescence, A647 channel (570/671 nm), Tris buffer; max dye-equivalent concentration, M; 59,000 tested, under 10 active; AID 592; active means above 1 µM dye equivalent; inconclusive means 0.1 to 1 µM; inactive means 0.1 µM or less;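 also: values scaled relative to a standard on each plate; highest value over a series up to 38 µM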
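Tris 100 mM pH 8.0; cpd + A647 stds pin-transferred; 15 min RT; CCD imager, ex 570/em 671. Output = A647-equivalent conc. per cpd conc.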
The depositor's hits bear a star; i = inactive; u = inconclusive; x = no result given; [ ] = another dose, or the depositor's remark.

SMILES | Resorufin autofl | TSHR agonist | A488 autofl | AID923 | A647 autofl
c1ccc2c(c1)ncn2CCC1CCCCC1 | i | x | i | -1.8% | 3.1e-09
Cc1cc(C)cc(-n2cc3c(=O)n(C)c(=O)n(C)c3c2)c1 | x | -12.9% | x | -0.3% | x
CC12CCC(=O)N1C(C(=O)OCC(=O)Nc1sccc1C#N)CS2 (centres undefined) | i | 2.0% | i | 0.5% | 4.2e-09
CCOC(=O)CSc1nc(N)c(C#N)c(-c2ccc(OCC)cc2)c1C#N | i | -1.9%[11.4 µM] | i | 3.2% | 3.7e-09
Cc1nn(Cc2ccccc2)c(C)c1NC(=O)CSc1nnc(-c2cc(Cl)ccc2O)n1C | i | -2.6% | i | 1.8% | 2.1e-09
CN1CCN(/C=N/c2c(C#N)cnn2-c2ccccc2)CC1 | i | -3.3% | i | 0.1% | 1e-09
Cc1ccc(CNC(=O)CCS(=O)(=O)c2cccc3nonc23)cc1 | i | u | i | 0.5% | 1.87e-08
O=C(O)c1ccc(-c2ccc(O)c(F)c2)cc1 | x | -1.1% | x | 1.0% | x
c1ccc2nc3c(nc2c1)[nH]c1ccccc13 | i | 2.4% | i | 17.7% | 1.3e-09
Cc1nc2ccccc2c(=O)n1/N=C/c1ccc(N(C)C)cc1 | i | 0.2% | i | 0.1% | 2.44e-08
CSc1cccc(NC(=O)c2c(Cl)cnn2C)c1 | i | 7.6% | i | 0.8% | 1e-09
CCOC(=O)c1c2c(n3ccccc13)C(=O)c1ccccc1C2=O | i | -12.3%[11.4 µM] | i | -1.1%[11.5 µM] | 1e-09
Cc1cc(C)n(-c2nc3c(c(=O)[nH]c(=O)n3C)n2C(C)C)n1 | i | -0.5% | i | -1.0% | 1e-09
Nc1nc(SCc2ccccc2[N+](=O)[O-])c2[nH]cnc2n1 | i | -1.0%[11.4 µM] | i | 0.2%[11.5 µM] | 1e-09
COc1cccc(NC(=O)c2cn(C)c(=O)c3cc(OC)c(OC)cc23)c1 | i | 2.5% | i | 0.8% | 2.12e-08
N/C(=N\S(=O)(=O)c1cccs1)c1ccccc1 | i | 30.0% | i | -1.9% | 1e-09
COc1ccc2c(c1)c1nc(SCC(C)C)n(CCO)c(=O)c1n2C | x | -5.9% | x | -1.8% | x
N#Cc1c(SCC(=O)N2CCOCC2)nsc1SCC(=O)N1CCOCC1 | x | 5.0% | x | -0.1% | x
CC(Sc1nnnn1C)C(=O)Nc1ccccc1-c1ccccc1 (centres undefined) | i | 12.9% | i | -0.4% | 2e-09
c1ccc(CCn2nnnc2C(c2cccs2)N2CCOCC2)cc1 (centres undefined) | i | -1.5% | i | -0.8% | 1e-09
CC(C)COP(=O)(c1ccc(N(C)C)cc1)C(O)c1ccccc1F (centres undefined) | i | 22.7% | i | -0.9% | 7.1e-09
c1ccc(CC2CCN(c3nnnn3-c3ccccc3)CC2)cc1 | i | u | i | -1.0% | 1.72e-08
CC1N/C(=C\C(=O)c2ccccc2)N(O)C1(C)C (centres undefined) | i | 2.4% | i | 2.7% | 1e-09
COc1cccc2cc(C(=O)N3CCc4ccccc43)c(=O)oc12 | i | 1.4% | i | 1.4% | 1.17e-08

19 entries from above, comma-delimited:
Molecule,Resorufin autofl,TSHR agonist,A488 autofl,AID923,A647 autofl
Cc1nn(Cc2ccccc2)c(C)c1NC(=O)CSc1nnc(-c2cc(Cl)ccc2O)n1C,i,-2.6%,i,1.8%,2.1e-09
CN1CCN(/C=N/c2c(C#N)cnn2-c2ccccc2)CC1,i,-3.3%,i,0.1%,1e-09
Cc1ccc(CNC(=O)CCS(=O)(=O)c2cccc3nonc23)cc1,i,u,i,0.5%,1.87e-08
O=C(O)c1ccc(-c2ccc(O)c(F)c2)cc1,x,-1.1%,x,1.0%,x
c1ccc2nc3c(nc2c1)[nH]c1ccccc13,i,2.4%,i,17.7%,1.3e-09
Cc1nc2ccccc2c(=O)n1/N=C/c1ccc(N(C)C)cc1,i,0.2%,i,0.1%,2.44e-08
CSc1cccc(NC(=O)c2c(Cl)cnn2C)c1,i,7.6%,i,0.8%,1e-09
CCOC(=O)c1c2c(n3ccccc13)C(=O)c1ccccc1C2=O,i,-12.3%[11.4 µM],i,-1.1%[11.5 µM],1e-09
Cc1cc(C)n(-c2nc3c(c(=O)[nH]c(=O)n3C)n2C(C)C)n1,i,-0.5%,i,-1.0%,1e-09
Nc1nc(SCc2ccccc2[N+](=O)[O-])c2[nH]cnc2n1,i,-1.0%[11.4 µM],i,0.2%[11.5 µM],1e-09
COc1cccc(NC(=O)c2cn(C)c(=O)c3cc(OC)c(OC)cc23)c1,i,2.5%,i,0.8%,2.12e-08
N/C(=N\S(=O)(=O)c1cccs1)c1ccccc1,i,30.0%,i,-1.9%,1e-09
COc1ccc2c(c1)c1nc(SCC(C)C)n(CCO)c(=O)c1n2C,x,-5.9%,x,-1.8%,x
N#Cc1c(SCC(=O)N2CCOCC2)nsc1SCC(=O)N1CCOCC1,x,5.0%,x,-0.1%,x
CC(Sc1nnnn1C)C(=O)Nc1ccccc1-c1ccccc1 (centres undefined),i,12.9%,i,-0.4%,2e-09
c1ccc(CCn2nnnc2C(c2cccs2)N2CCOCC2)cc1 (centres undefined),i,-1.5%,i,-0.8%,1e-09
CC(C)COP(=O)(c1ccc(N(C)C)cc1)C(O)c1ccccc1F (centres undefined),i,22.7%,i,-0.9%,7.1e-09
c1ccc(CC2CCN(c3nnnn3-c3ccccc3)CC2)cc1,i,u,i,-1.0%,1.72e-08
CC1N/C(=C\C(=O)c2ccccc2)N(O)C1(C)C (centres undefined),i,2.4%,i,2.7%,1e-09

More structures.
SMILES | Resorufin autofl | TSHR agonist | A488 autofl | AID923 | A647 autofl
COc1ccc(C2C(C(N)=O)=C(C)Nc3nc(-c4ccccc4)nn32)cc1OC (centres undefined) | x | -8.5% | x | 2.5% | x
Cc1ccc(NC(=O)COS(=O)c2ccc(C)cc2)cc1 (centres undefined) | i | -0.3% | i | 0.6% | 1e-09
COc1ccc(NC2C=CS(=O)(=O)C2)c(OC)c1 (centres undefined) | i | u | i | 2.0% | 8.1e-09
C=CCSC[C@@H]1Nc2cc(Cl)c(S(N)(=O)=O)cc2S(=O)(=O)N1 | i | -0.9%[25.6 µM] | i | 0.5%[25.7 µM] | 1e-09
O=S(=O)(NCc1cccs1)c1cccc2cccnc12 | i | 2.1% | i | 0.9% | 1e-09
COc1ccc(OCCSc2nnc(-c3ccccc3)n2N)cc1 | i | 14.8% | i | -2.2% | 2.9e-08
CCN(CC)C(=O)c1c[nH]c2ccc(S(=O)(=O)Nc3cc(C)cc(C)c3)cc2c1=O | i | 2.7% | i | 1.3% | 2.85e-08
O=Cc1ccc(B(O)O)cc1 | x | 10.9% | x | 0.6% | x
CCOCC(=O)Nc1ccc(S(=O)(=O)Nc2ncccn2)cc1 | i | -11.6% | i | -0.3% | 3.9e-09
CCCCCn1ccc(=N)cc1 | i | 6.9% | i | 0.9% | 3e-09
Cc1c(C(=O)Nc2ccc3c(c2)OCO3)sc2nc(-c3ccccc3)cn12 | i | u | i | 1.6% | 1e-09
CCOc1ccc(NC(=O)COc2nsnc2N2CCCCC2)cc1 | i | -10.8% | i | -0.4% | 1e-09
NCC(=O)NC1(C(=O)O)CCCC1 | i | u | i | -0.9%[11.5 µM] | 1.45e-08
N#Cc1nc(-c2cccc3ccccc23)oc1NCCN1CCOCC1 | i | 0.2%[11.4 µM] | i | 4.0% | 1e-09
O=C(NCc1ccc(Cl)cc1)c1noc2c1CCCC2 | i | 3.9% | i | -0.3% | 1e-09
COc1ccc2c(c1OC)C(=O)N1c3cccc(Cl)c3C(=O)OC21 (centres undefined) | i | 0.9% | i | 1.8% | 3.2e-09
O=C(CC1CCCCC1)NCCCN1CCOCC1 | x | 0.0%[11.4 µM] | x | 0.8% | x
CCOC(=O)N1CCN(C(=O)c2ccc(CNS(=O)(=O)c3ccc(OC)cc3)cc2)CC1 | i | 1.5% | i | -1.1% | 2.4e-09
COc1ccccc1NC(=O)c1cc2ccccc2o/c1=N\O | i | -10.6% | i | -0.5% | 4.41e-08
CC(=O)c1ccc(N2CCN(C(=O)c3ccc(NC(=O)C4CCCO4)cc3)CC2)cc1 (centres undefined) | i | -3.2%[11.4 µM] | i | -0.4% | 3.51e-08
COc1cccc(NC(=O)N2CCC(C(N)=O)(N3CCCCC3)CC2)c1 | i | 0.8%[11.4 µM] | i | -0.7% | 3.26e-08
CCCCCn1c(=O)[nH]c2cc(C(=O)NCCN3CCOCC3)ccc2c1=O | i | -2.8%[11.4 µM] | i | 0.5% | 1.5e-09
OCCNC1=NCCN1 | i | x | i | x | 1e-09
COc1cc(NC(=O)c2ccco2)c(OC)cc1NC(=O)CSc1nnc(-c2cccs2)n1C | i | -4.5% | i | -0.4% | 3.8e-09
CCOc1ccccc1OCCCC(=O)Nc1ccc(OC)nc1 | i | 18.9% | i | -2.3% | 3.68e-08
COCc1nc(-c2cc(Br)ccc2OC)no1 | i | 6.1% | i | 0.4% | 1.43e-08
CCOc1ccc(C2=Nn3c(nnc3-c3ccccc3OC)SC2)cc1 | i | x | i | x | 3.75e-08
CC(=O)Nc1cccc(OC(=O)c2ccoc2C)c1 | i | 7.3% | i | -0.5% | 3.08e-08
CC1=Nc2ccccc2NC(=O)C1Sc1nnc(C)s1 (centres undefined) | i | -1.6% | i | 0.3% | 5.3e-09
CC(C)OC(=O)CSc1nnc(-c2ccc(Cl)cc2)n1N | i | 13.4%[11.4 µM] | i | 1.1% | 1e-09
CCCCn1c(CNC(=O)CCC)nc2ccccc21 | x | 9.2% | x | -3.5% | x
O=C(O)CSCCC(=O)Nc1ccc(F)cc1 | i | 3.7% | i | -1.1% | 4.6e-09
COC(=O)CC1SC(=O)NC1=Nc1ccc(C)cc1 (centres undefined) | i | 0.7%[11.4 µM] | i | -1.1% | 1e-09
NC(=O)c1sc2nccc(Nc3ccccc3)c2c1N | i | u | i | 6.0% | 4.19e-08
CCS(=O)(=O)Nc1ccc(-c2ccc(NS(=O)(=O)CC)c(OC)c2)cc1OC | x | -5.7% | x | 2.7% | x
Cc1cc(C)c(OCC(=O)Nc2cccc(O)c2)cc1C | i | 17.4% | i | 0.9% | 1e-09
CCCn1c(NCc2ccc(N(C)C)cc2)nc2ccccc21 | x | -25.1% | x | -1.1% | x
CC[C@H](C)C(=O)O[C@H]1C[C@@H](C)C=C2C=C[C@H](C)[C@H](CC[C@@H]3C[C@@H](O)CC(=O)O3)[C@H]21 | i | u | i | -3.1% | 1e-09
COc1cc(NC(=O)c2ccc3c(c2)OCO3)c2ncccc2c1 | i | 36.4% | i | -1.7% | 8.5e-09
COc1ccc(N2CCN(S(=O)(=O)c3ccc(C(=O)NCc4ccco4)cc3)CC2)cc1 | i | x | i | 0.6% | 1.7e-09
CCc1nnc(NC(=O)c2cccc(OC)c2)s1 | x | -6.2% | x | 3.4% | x
CCCCOP(=O)(c1ccc(N(C)C)cc1)C(O)c1ccncc1 (centres undefined) | i | -1.6% | i | -0.9% | 2.07e-08
COc1ccc(CN2CCN(C(=O)CC(C)C)CC2)cc1OC | x | 2.6% | x | 0.1% | x
N#CC1=C(N)Oc2n[nH]c(-c3ccncc3)c2C1c1ccsc1 (centres undefined) | i | 1.3% | i | -1.0% | 4.05e-08
CCN(CC)CCCNS(=O)(=O)c1ccc(OC)cc1 | x | 5.2% | x | 2.8% | x

Not all compounds are listed (hit frequency here may not be typical).
